gsp agonist: activates gsp, the McCune-Albright syndrome mutation. gsp mutant cells, cAMP HTRF, 30 min; control for the full effect not named in the record. Potency, µM (titrated, usually from 76.9 µM), inactives show top-dose activation (cAMP increase), actives largely listed as activators. hit rate 0.13% among 340,000; active = well fitted activation curve with a large enough effect; inconclusive = small, poorly fitted or top-dose-only effect, or another doubt; inactive = no such curve, though single readings can be large or run the other way; cell line not stated here;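 note: phosphodiesterase inhibitor Ro 20-1724 added with compounds to block cAMP breakdown; potency is the fitted concentration of half-maximal effect; nearly all actives have a fitted effect of over 60% in size; about a fifth of the inactives were tested at one dose only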
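Cells stably selected in G418 were plated at 2000/well, grown 16-24 hr, then given compounds in DMSO with the PDE inhibitor […] (300 uM solution added) for 30 min at 37C; cAMP was read by HTRF.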
D2 agonist: agonists of human D2 dopamine receptor (beta-arrestin) | hit rate 0.084% among 360,000 | DiscoveRx PathHunter D2 beta-arrestin, luminescence, 90 min; 100% = 57 uM dopamine signal | activation, % (no concentration beside the values); in the data active = activation above about 40%; inconclusive = about 15% to 40%; inactive = below about 15%; note: compound concentration not given in the record; the text of the record calls up to 30% inactive
Target sequence (P14416 whole entry, looked up): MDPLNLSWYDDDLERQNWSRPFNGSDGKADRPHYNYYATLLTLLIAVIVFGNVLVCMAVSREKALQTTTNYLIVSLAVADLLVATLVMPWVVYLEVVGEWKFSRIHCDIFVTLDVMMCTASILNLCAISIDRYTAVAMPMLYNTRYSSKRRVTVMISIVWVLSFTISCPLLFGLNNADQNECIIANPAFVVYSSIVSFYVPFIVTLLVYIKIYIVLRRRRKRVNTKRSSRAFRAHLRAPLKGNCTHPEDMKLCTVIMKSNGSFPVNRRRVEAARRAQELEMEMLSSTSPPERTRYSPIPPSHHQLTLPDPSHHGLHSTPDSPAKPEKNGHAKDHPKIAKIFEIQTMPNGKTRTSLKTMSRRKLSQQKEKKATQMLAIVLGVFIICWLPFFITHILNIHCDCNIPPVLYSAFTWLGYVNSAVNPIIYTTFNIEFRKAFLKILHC
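Agonist mode: compounds alone added to overnight-plated D2 PathHunter cells for 90 min at 37 C, with 57 uM final dopamine (EC100) defining full response. Beta-arrestin recruitment detected by chemiluminescent reagent, read after 1 h at ambient temperature.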
ClpP mod: qHTS Assay for Activators of ClpP. ATP-dependent Clp protease proteolytic subunit (Bacillus subtilis (strain 168)), P80244. purified B. subtilis ClpP, FRET peptide cleavage, 20 min. Potency, µM (top dose mostly 57.5 µM), for the others: at the highest dose activity change, negative = active. hit rate 1.9% among 340,000; active = well fitted falling curve with a large enough effect; inconclusive = small, poorly fitted or top-dose-only effect; inactive = no such curve, though single readings can be large or run the other way; note: potency is the fitted concentration of half-maximal effect; the source files actives as falling curves though it sought activators and does not explain the sign; nearly all actives have a fitted effect of over 65% in size; many hits overshoot -100%
Target sequence (P80244 whole entry, looked up): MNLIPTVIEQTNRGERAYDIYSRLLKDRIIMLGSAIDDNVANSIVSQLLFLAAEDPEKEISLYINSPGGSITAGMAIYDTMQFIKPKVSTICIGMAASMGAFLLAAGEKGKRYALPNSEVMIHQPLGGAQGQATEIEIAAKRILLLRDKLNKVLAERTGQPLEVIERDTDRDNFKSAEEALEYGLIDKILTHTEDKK
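Buffer: 100 mM Tris/HCl pH8, 100 mM KCl, 0.05% low protease BSA, 2.5% glycerol, 0.01% Tween-20. ClpP 10 microg/mL final; 20 min RT; delta FRET normalized to ADEP and DMSO controls.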
gsp antagonist: gsp mutant antagonism; gsp-mutant cells, cAMP HTRF, 30 min; control for the full effect not named in the record; Potency, µM (highest dose often 76.9 µM), for the others: top-dose activity change, negative = inhibition, usual class: inhibitors; hit rate 0.4% among 340,000; active = falling curve of any shape with a large fitted effect; inconclusive = falling curve, mostly with a smaller effect; inactive = flat or rising curve; cell line not stated here;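 note: intracellular cAMP measured with PDE inhibitor Ro 20-1724 present during compound exposure; potency is the fitted concentration of half-maximal effect; % is set by controls: 0 for no effect and ±100 for the full control effect; nearly all actives have a fitted effect of over 65% in size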
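Cells in G418 medium, seeded 16-24 h, 37C; buffer exchange to DPBS + 1 mM CaCl2, 0.5 mM MgCl2, 0.05% BSA; cpds in DMSO + […] (300 uM stock), 30 min 37C; HTRF cAMP detection.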
PINK1 modulator: changes PINK1 expression. PINK1 immunofluorescence, high-content cytometry, 24 h. Potency, µM (titrated, usually from 76.6 µM), without a hit: at the highest dose activation (PINK1 increase), hits mostly activators. hit rate 0.2% among 410,000; active = well fitted activation curve with a large enough effect; inconclusive = small, poorly fitted or top-dose-only effect; inactive = flat fitted curve, though single readings scatter; cell line not stated here;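 note: potency is the fitted concentration of half-maximal effect; % of control where 0% means no effect; nearly all actives have a fitted effect of over 65% in size; a mitochondrial uncoupler was the plate control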
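A stable cell line was treated with compounds at 5 concentrations for 24 hours, with CCCP as control. PINK1 levels and mitochondrial localization were measured by immunofluorescence with mitochondrial, cell and nuclear markers after fixation, read by laser-scanning cytometry.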
Sfp inh: Sfp phosphopantetheinyl transferase inhibition; Q9F4F7; Biochemical Sfp PPTase activity, qHTS; Potency, µM, for the others: max response, negative = inhibition, actives largely listed as inhibitors; AID 1490; hit rate 3.5% among 310,000; active = well fitted inhibition curve with a large enough effect; inconclusive = small, poorly fitted or top-dose-only effect, or another doubt; inactive = no such curve, though single readings can be large or run the other way;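 note: the enzyme is Sfp with the accession as filed and its product quenches rhodamine fluorescence; potency is the fitted concentration of half-maximal effect; 0% = enzyme reaction without inhibitor and -100% = no enzyme wells; top concentration of the series not given in the record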
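Fluorescence-quenching assay: 15 nM Sfp-PPTase preincubated 15 min at room temperature with compound, then 5 uM rhodamine-CoA and 12.5 uM BHQ-2-labelled YbbR peptide added. Fluorescence (ex 525/em 598 nm) read at start and after 30 min; difference gives rate.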
Menin MLL FP FL: menin-MLL binding inhibition, fluorescein peptide; 290,000 tested, under 10 active; Fluorescence polarization, fluorescein-MLL peptide displacement from menin; FP activity change, % at 61.4 µM; inconclusive = falling polarisation curve, or a change in total fluorescence; inactive = total fluorescence flat and polarisation flat or rising; no compound was filed as active; the % refers to the polarisation; negative = inhibition;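 note: % of control where 0% means no effect; inhibitors lower the polarisation; unlabelled MLL peptide was the positive control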
* marks the source's active call; other numbers are inactive results; ? = inconclusive; . = not tested or not shown; & = joins results of further samples; [ ] = dose if it differs, or a comment.

SMILES	gsp agonist	D2 agonist	ClpP mod	gsp antagonist	PINK1 modulator	Sfp inh	Menin MLL FP FL
CCCc1cc(N2CCCC2)n2nc(C)c(-c3ccccc3)c2n1	3%	-0.6	32µM*	1%	6.4%	-14%	0.9
CCN(CC)C(=O)COC(=O)c1ccc(O)cc1	15%	-4.0	-1.7%	-5%	2.6%	5%	2.7
Clc1ccccc1CSc1nnc(-c2ccccn2)n1Cc1ccco1	1%	-3.1	-0.3%	-20%	-3.4%	56µM*	-0.5
NC(=O)C1CCN(CC(=O)NC2CCCc3ccccc32)CC1 (stereo not drawn)	-26%	8.3	.	9%	3.5%	3%	-0.4
CC(C)(C)Nc1nc(Oc2ccc(=O)n(-c3ccccc3)n2)nc(N2CCOCC2)n1	?	-1.6	-5.5%	3%	3.5%	9%	5.8
Cc1ccc(NS(=O)(=O)c2cccc(C(=O)N3CCN(C(=O)c4ccco4)CC3)c2)cc1	21%	-1.0	-2.1%	-12%	0.6%	.	.
CCOc1ccccc1NC(=S)N(CCOC)C1CCN(C(C)=O)CC1	3%[15.4 µM]	-5.0	.	0%	0.5%	8%	2.5
CN(CC(=O)Nc1ccc(F)cc1)C(=O)COC(=O)c1ccc(-c2ccccc2)cc1	-2%[15.4 µM]	3.4	-5.5%	2%	7.4%	.	.
COc1ccc(N=C2O/C(=C/c3sc(=S)n(CC4CCCO4)c3O)N=C2C#N)cc1 (stereo not drawn)	13%	6.5	.	35µM*	?	2.8µM*	?
C/C(Nc1ccc(Cl)cc1)=C(/C#N)C(N)=O	-18%	-1.4	0.4%	2%	-3.0%[38.3 µM]	13%	0.2
CC(C)c1ccc(NC(=S)NC2CCN(Cc3ccccc3)CC2)cc1	10%	-1.6	1.6%	-10%	-3.0%	16%	3.8
CCP(=O)(c1cccc([N+](=O)[O-])c1)c1cccc([N+](=O)[O-])c1	-1%[15.4 µM]	-4.1	-7.8%	10%	-2.5%	-8%	2.3
O=C(NCCNCc1cccc(Cl)c1)c1ccco1	-5%[15.4 µM]	-4.1	.	3%	0.4%	.	.
COc1ccc(COC(=O)c2cccc(S(=O)(=O)N3CCN(C(C)=O)CC3)c2)cc1	-5%	5.0	-3.1%	-11%	0.6%	.	.
S=c1[nH]nc(CCc2ccccc2)n1Cc1ccccc1	-1%	8.2	-0.7%	0%	-0.8%	-8%	1.2
CCO[C@H]1OC(C(=O)NCc2ccccc2)=C[C@@H](C2CCCCC2)[C@@H]1CCCO	.	0.0	1.4%	-27%	3.2%	-20%	0.8
O=C(NC(=S)Nc1ccc(S(=O)(=O)N2CCCCC2)cc1)c1ccccc1	7%	-6.3	-4.5%	-15%	3.0%	4%	2.5
CCC(=O)OCC(=O)Nc1cc([N+](=O)[O-])ccc1OC	23%[15.4 µM]	-2.7	.	12%	0.1%	8%	-2.2
O=C(Nc1ccccc1)N1CC2(CCN(C(=O)c3ccco3)CC2)C1	.	.	.	.	-0.8%	14%	1.1
CCOc1ccc(Oc2ccccc2NC(=O)C2=COCCO2)cc1	12%	-6.8	0.3%	-2%	6.3%	.	.

Next part:
SMILES	gsp agonist	D2 agonist	ClpP mod	gsp antagonist	PINK1 modulator	Sfp inh	Menin MLL FP FL
Cc1cccc2c(C(=O)Nc3ccc(Br)cc3)cc(-c3ccccn3)nc12	-11%[15.4 µM]	-3.2	-11%	5%	9.8%	-11%	-0.4
COc1ccc(S(=O)(=O)Nc2ccc(N3CCOCC3)cc2)cc1	6%	0.4	-1.4%	-4%	1.0%	9%	6.2
O=C(Cn1nnc2ccccc21)Nc1ccc(Cl)cn1	19%[15.4 µM]	-1.1	.	18%	0.7%	14%	-4.2
CCOC(=O)c1cccc(-c2ccc(C=O)o2)c1	-26%	0.8	5.5%	-15%	-0.1%	?	8.8
COc1ccc(NC(=O)c2ccc(-n3c(C)ccc3C)cc2)c(OC)c1	5%[15.4 µM]	-2.5	.	-6%	0.7%	-4%	0.9
Cc1nc(N2CCC(C(N)=O)CC2)c2c(-c3cccs3)csc2n1	-6%[15.4 µM]	-2.7	.	-10%	-1.2%	15%	7.7
O=C(O)CCc1nn2c3ccccc3nc2n(CCN2CCCCC2)c1=O	?	1.1	18µM*	-8%	0.9%	9%	1.7
COC(=O)c1ccc2c(c1)C(NC(C)=O)CCc1cc(OC)c(OC)c(OC)c1-2 (stereo not drawn)	22%	3.1	-2.4%	10%	6.6%	.	.
COc1ccc(CN2CCC(=O)NC2=O)cc1	12%	-2.4	2.6%	5%	0.0%[38.3 µM]	21%	15
O=C(Nc1ccc(S(=O)(=O)Nc2ncccn2)cc1)c1ccccc1Cl	-42%[inhibitor]	0.6	0.2%&-2.4%	4%	1.0%&0.2%	8%	-1.8
Cc1cc(C)nc(SCC(=O)NN)n1	12%	-1.1	.	7%	-0.3%	-13%	-1.8
C[C@@H]1COC(=O)[C@H](Cc2ccc(F)cc2)CC/C=C/C[C@@H](CC(=O)N[C@@H](CO)Cc2ccccc2)C(=O)N1	28%	-1.8	-0.2%	2%	-1.2%	.	.
O=c1oc2c3c4c(cc2s1)CCCN4CCC3	-9%	-4.3	1.5%	-6%	-0.9%	18µM*	?
CCOC(=O)N1CCN(C(=O)Cn2ccc3ccccc3c2=O)CC1	-8%	-4.4	-6.9%	-22%	1.2%	10%	-2.1
CSc1cccc(NC(=O)C2CCN(S(=O)(=O)c3ccc(F)cc3)CC2)c1	-40%[inhibitor]	-0.5	0.2%	?	3.2%[38.3 µM]	27%	-3.7
O=C(O)c1nc(N2CCCC2)ncc1Cl	7%	-0.7	-0.1%	15%	2.5%[38.3 µM]	16%	-3.6
O=C(CCc1c[nH]c2ccccc12)Nc1ncccc1O	-2%	-0.5	-3.4%	3%	-0.7%	22%	.
CCCCNC(=O)C1CCN(S(=O)(=O)c2c(C)noc2/C=C\c2ccc(OC)cc2)CC1	-17%	-4.2	66%	-16%	0.1%	17%	4.6
COc1ccc(Br)cc1CNc1ccc(O)cc1	20%	9.9	-7.9%	-4%	2.7%	20µM*	2.4
O=C(NC1CCCC1)c1cc(Cl)ccc1[N+](=O)[O-]	-2%	-2.7	-1.1%	-4%	-0.4%	11%	.

(list continues)
SMILES	gsp agonist	D2 agonist	ClpP mod	gsp antagonist	PINK1 modulator	Sfp inh	Menin MLL FP FL
Cc1cc(C)n2nc(C(=O)Nc3nnc(C4CC4)s3)nc2n1	17%	0.4	1.2%	-13%	2.0%	50µM*	3.0
O=C(CCCn1c(=O)c2ccccc2n(Cc2ccccc2)c1=O)NCc1ccco1	2%	-2.1	-19%	3%	1.6%	17%	7.5
Cn1c(NC(=O)c2cc(Br)ccc2Cl)cc(=O)n(C)c1=O	-6%	-3.6	-0.4%	12%	2.0%	11%	3.9
Cn1c(=O)[nH]c(=O)c2c1nc(CN1CCN(c3cccc(Cl)c3)CC1)n2CCc1ccccc1	18%	-3.0	-1.8%	3%	-1.4%[38.3 µM]	15%	3.1
CC1=NN(C(=O)CSCc2ccccc2)C(O)(c2ccc(Cl)cc2)C1 (stereo not drawn)	-1%	-2.4	0.9%	-7%	3.2%	10%	-0.9
COc1cccc(C2C=C(c3ccc(Br)s3)Nc3ncnn32)c1OC (stereo not drawn)	-105%[inhibitor]	-4.1	-6.9%	?	3.7%	?	?
Cc1ccc(S(=O)(=O)N2CCN(C(=O)/C=C/c3ccco3)CC2)cc1	-8%[15.4 µM]	-5.1	-1.1%	-4%	0.6%	?	0.8
CCCc1c(C(=O)N/N=C/C(C)=C/c2ccccc2)nnn1-c1nonc1N	-35%[inhibitor]	-4.0	0.5%	-26%	3.2%	8%	-0.8
COc1ccc(/C=N/n2c(-c3cc(C)[nH]n3)n[nH]c2=S)cc1	9%[15.4 µM]	-2.8	-18%	?	-3.7%	-28%	4.2
O=C1CC(N2CCC(c3nc4ccccc4s3)CC2)C(=O)N1 (stereo not drawn)	-27%	-5.8	-0.1%	4%	-0.6%	13%	-0.7
Cc1ccc(C(=O)NC(=S)NCC2CCCO2)cc1 (stereo not drawn)	-2%	-4.8	-0.5%	8%[15.4 µM]	-0.6%	10%	-0.1
CCOC(=O)C(Sc1nn(C)c(=S)s1)C(C)=O (stereo not drawn)	-4%	-2.0	-0.1%	-19%	3.5%[38.3 µM]	50µM*	-2.0
CC(=O)Nc1ccc(-c2csc(Nc3ccc(Cl)cn3)n2)cc1	-10%[15.4 µM]	-1.8	.	2%	1.6%	-1%	-3.4
CCCn1nnc(NC(=O)c2cccc(OCC)c2)n1	-7%	-2.2	-0.7%	13%	-0.4%	14%	6.1
Cc1cccnc1NC(=O)c1ccc(Cl)c(S(=O)(=O)N2CCCC2)c1	4%	-2.9	-13%	5%	-0.6%	8%	.
CCOC(=O)Cc1c(C)nc2cc(-c3ccc(C)cc3)[nH]n2c1=O	-14%	-3.2	16µM*	7%	0.9%	7%	7.8
CCN(c1cccc(C)c1)S(=O)(=O)c1ccc2c(c1)CCCN2C(C)=O	-40%[inhibitor]	1.0	.	-8%	1.4%	7%	-3.0
O=[N+]([O-])c1ccc(N2CCOCC2)c(S(=O)(=O)N2CCOCC2)c1	?	0.5	.	6%	-2.2%	19%	-4.5
O=C(NCC1CCCO1)C1CCN(S(=O)(=O)c2cccc3cccnc23)CC1 (stereo not drawn)	-27%	0.0	-4.0%	7%	2.4%	16%	-3.0
O=C(NC1CCCCC1)c1ccc(-c2cn[nH]c2)c2ccoc12	.	-4.6	4.1%	.	1.9%	.	.
CN1C(=O)C(C)(C)c2cc(S(=O)(=O)NCC3CCC(C(=O)NCc4ccccc4)CC3)ccc21 (stereo not drawn)	-8%	-2.6	-1.3%	-2%	-0.3%	17%	0.1
Cc1ccc(Oc2cc([N+](=O)[O-])cc3c2C(=O)Nc2ccccc2O3)cc1	10%[15.4 µM]	1.9	-2.2%	-6%	12%	1%	15

High-throughput results from PubChem BioAssay.
